Mtb MenB inh = Mtb MenB enzyme inhibition. inhibition, %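 (about 12 µg/mL by stock and volumes)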. MenB enzyme assay, absorbance read-out; some hits fall short of the stated cut. AID 540299. 100,000 tested, 0.43% active;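 active = mean of two replicates above 30%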;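 also: 0% = no compound and 100% = wells with inactive enzyme; the first replicate is given; strong numbers were not always called active; inactives centre near -10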
Target sequence (P9WNP5 whole entry, looked up): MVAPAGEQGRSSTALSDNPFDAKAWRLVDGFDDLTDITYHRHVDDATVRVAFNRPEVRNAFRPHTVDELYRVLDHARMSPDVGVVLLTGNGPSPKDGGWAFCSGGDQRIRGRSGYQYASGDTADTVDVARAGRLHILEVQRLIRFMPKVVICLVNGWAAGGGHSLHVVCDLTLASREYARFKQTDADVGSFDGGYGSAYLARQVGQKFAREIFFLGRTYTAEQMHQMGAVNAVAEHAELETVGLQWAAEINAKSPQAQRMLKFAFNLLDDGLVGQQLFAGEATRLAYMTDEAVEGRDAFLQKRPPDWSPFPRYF
Polio RdRp inh = poliovirus RNA polymerase inhibition; P03300; poliovirus polymerase elongation, fluorescence polarization; hits give low values; % elongation, % (compound at 16.7 µg/mL); 150,000 tested, 0.66% active; AID 588519; in the data active = % elongation below about 90%; also: some results filed as inactive read as strong as hits
MbtI inh = blocks the Mycobacterium tuberculosis siderophore enzyme MbtI | P9WFX0 | purified MbtI enzyme, fluorescence intensity read-out | inhibition, %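 (about 17 µg/mL by stock and volumes)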 | 100,000 tested, 0.89% active;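 active = above 50% in both replicates, above 80% if mildly self-fluorescent; inactive = the rest, strongly fluorescent compounds included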;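 also: 0% = mean of negative and 100% = mean of positive controls; one replicate is shown; some compounds called inactive have numbers as strong as hits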
Target sequence (P9WFX0 whole entry, looked up): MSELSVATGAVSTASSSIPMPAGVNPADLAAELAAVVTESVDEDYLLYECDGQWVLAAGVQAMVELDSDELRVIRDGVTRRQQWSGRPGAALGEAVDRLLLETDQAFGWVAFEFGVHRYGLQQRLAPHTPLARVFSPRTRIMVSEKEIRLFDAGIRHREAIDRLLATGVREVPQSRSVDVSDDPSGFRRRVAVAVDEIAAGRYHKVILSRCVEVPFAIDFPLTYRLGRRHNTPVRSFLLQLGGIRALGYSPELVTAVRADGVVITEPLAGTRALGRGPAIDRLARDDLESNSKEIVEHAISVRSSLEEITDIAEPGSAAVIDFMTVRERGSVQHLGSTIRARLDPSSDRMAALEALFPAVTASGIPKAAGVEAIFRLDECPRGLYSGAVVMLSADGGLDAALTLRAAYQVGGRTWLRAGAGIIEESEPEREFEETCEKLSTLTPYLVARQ
Polio RdRp inh intensity = second read-out of Polio RdRp inh, no call of its own (marks repeat the call); % elongation; measured here: total intensity read-out; formula for this scale not given here;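 total fluorescence in place of polarization; lower means less elongation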
Active calls of the source: *; / = not tested or not shown; & = joins results of further samples.

SMILES	Mtb MenB inh	Polio RdRp inh	Polio RdRp inh intensity	MbtI inh
O=C(Nc1ccc(-c2nc3c(ccc4ccccc43)o2)cc1)c1ccco1	-11	102	107	65
COc1ccc(-n2c(C)cc3cc(OC(C)=O)ccc32)cc1	-26	101	103	-13
CN(C)CCCNCc1ccccn1	6	100	103	11
O=C(CCC1(C(=O)O)CCC(=O)NC1)NCc1ccccc1 (stereo not given)	-2	105	117	/
COCCCn1c(-c2cccc(OC)c2)nc2nc3ccccc3nc21	-1	/	/	-22
O=C(O)C1=NN(c2ccccc2)C(=O)/C1=C/c1cccs1	-33	100	97	-1
O=C(CS)Nc1nc2c3ccccc3ncn2n1	-40	133	146	-9
Cc1ccc(Cn2c(=S)[nH]c3ccccc32)cc1	-30	/	/	46
O=C(NC(=S)NC1CC1)c1cccnc1	20	99	102	12
CCOC(=O)C(C)Oc1ccc(C#N)cc1OC (stereo not given)	-41	100	103	-3
O=C(NCC(=O)N1CCc2ccccc2C1)c1ccccc1Cl	-18	/	/	5
CCC/C=C(\CC)C[N+]1(C)CCCCC1	/	102	98	-10
CNC(=S)N1CCN(S(=O)(=O)c2ccc3ccccc3c2)CC1	-23	106	109	4
CCN1C(=O)CSc2ccc(C(=O)OC)cc21	-19	101	101	5
CSC1CCCCC1(O)CSc1nc2ccccc2o1 (stereo not given)	-4	101	100	-6
COC(=O)c1ccc(N=C2SC(C(=O)O)CC(=O)N2C)cc1 (stereo not given)	-11	104	111	/
Cc1cccc(Nc2ccccc2C(=O)OC(C)C(=O)N2CCN(C(=O)c3ccco3)CC2)c1C (stereo not given)	-35	104	99	26
O=C1CSCC(=O)N1c1cccnc1	3	84*	80*	-12
CCOC(=O)c1sc(-c2ccccc2)cc1NC(=O)COC(=O)COc1cc(C)on1	-28	106	102	33
CCN1CCCC1CNCc1cc(=O)n2ccc(C)cc2n1 (stereo not given)	-21	97	98	28
CCOC(=O)C(C)Oc1ccc2oc(=O)cc(C)c2c1 (stereo not given)	-8	103	102	/
O=C1NC2=C(C(=O)c3ccccc32)C(c2ccc(Cl)cc2)S1 (stereo not given)	-12	99	104	/
CCC(=O)Nc1nnc(SCCOC)s1	-13	102	103	6
O=C1CC(c2ccccc2)N(c2ccc(Cl)cc2Cl)C(=S)N1 (stereo not given)	3	108	112	-7
C=CCn1c(/N=C/c2ccc(OCCC(C)C)cc2)nc2ccccc21	-58	103	105	-11
O=C(NCCOc1ccc(Cl)cc1)c1ccccc1Cl	/	104	100	-7
CCCCNC(=O)Nc1cccc(-c2nnco2)c1	-9	103	101	1
O=C1CSC(=O)N1CC(O)COc1cccc2ccccc12 (stereo not given)	-12	103	98	47
Cn1c(=O)n(C)c2cc(N3CCCCC3)c(NS(C)(=O)=O)cc21	-4	100	103	9
CCOC(=O)c1cc(C(=O)OC)c(C)nc1N1CCC(NC2CCCCC2O)CC1 (stereo not given)	-9	104	109	-4
CN(CC(=O)Nc1ccccc1SCC#N)Cc1ccc(-c2ccc(Br)cc2)o1	30*	45	240	72
COc1ccc2nc(Cl)c(CN(Cc3ccc(F)cc3)C(=O)c3ccco3)cc2c1	-15	104	102	30
CCCCn1c(=O)[nH]c2ccccc2c1=O	7	91	93	-88
Cc1cccc(Cc2cnc(N3C(=N)SC(C)C3=O)s2)c1 (stereo not given)	-67	102	103	0
C/C(=N\O)C(=O)c1ccc(C)cc1	0	99	102	4
Cc1nc(N)nc(C)c1CCC(=O)O	25	102	102	54
COC(=O)CCN1C(=O)/C(=C\c2ccc(O)c(OC)c2)SC1=S	-15	113	128	9
COC(=O)c1ccc2c(=O)n(-c3ccc(C)cc3)c(Nc3ccccc3)nc2c1	-23	102	106	56
Cc1cc(S(=O)(=O)NCc2ccccc2)ccc1OCC(=O)N1CCOCC1	-16	99	99	-4
O=C(NCc1ccc(Cl)cc1Cl)c1ccc(Br)o1	/	102	106	-7
N#CSc1ccc(N)cc1	/	99	101	6
COCc1c(C(=O)NCC2COc3ccccc3O2)oc2ccccc12 (stereo not given)	-18	/	/	1
CC(C)OC(=O)c1cc2c(ccn2C)n1CC(=O)N1CCN(c2ccccc2F)CC1	-33	103	101	2
COc1ccc(CN(C(=O)c2ccc(CN3CCOCC3)o2)C(C(=O)NCC2CCCO2)c2ccc(F)cc2)cc1 (stereo not given)	-5	100	100	-16
COc1ccc(-c2cc(C3CC3)c(C#N)c(N)c2C#N)cc1	-59	108	111	106
Cc1cc(-c2onc(C)c2/C(N)=N/O)no1	-7	105	106	1
N#CC(C#N)c1ccc(C(F)(F)F)cn1	/	99	95	-273
CC1=[N+](CCC#N)c2ccccc2C1(C)C	-14	119	151	/
NS(=O)(=O)c1ncn(Cc2ccccc2)n1	0	105	109	/
OC(Cc1nc2ccccc2o1)c1ccccc1 (stereo not given)	-32	102	102	-17
O=CN/N=C/c1ccc(Cl)cc1	-8	97	100	5
CCCCc1ccc(NC(=O)N=S2CCN(c3ncc(C(F)(F)F)cc3Cl)CC2)cc1	-21	106	110	-13
Cc1csc(=O)n1CC(=O)OCC(=O)NC1(C#N)CCCCC1	-32	102	92	-6
O=c1cc(N2CCN(c3ccccc3)CC2)[nH]c(=O)n1-c1ccc(Cl)cc1	-11	105	107	6
CCN(CC)S(=O)(=O)c1c(C)cc(C)cc1C	-31	106	96	/
N#Cc1ccccc1NC(=O)COc1ccc2ccc(=O)oc2c1	11	100	110	17
Cc1nc(SCc2ccccc2C#N)n(C2CCCC2)c1C	-16	106	109	10
O=C(NC1=NCCCCCN1)Nc1cccc(Cl)c1	-19	105	101	/
C=CCN(CC=C)C(=O)c1cccc(OC)c1	1	105	96	/
CCOC(=O)c1c(C)noc1-c1csc(COc2cccc(Cl)c2)n1	12	99	109	-1

Full records, quoted from the list.
Record of N#CC(C#N)c1ccc(C(F)(F)F)cn1 → Mtb MenB inh: /; Polio RdRp inh: 99; Polio RdRp inh intensity: 95; MbtI inh: -273
Record of CCN(CC)S(=O)(=O)c1c(C)cc(C)cc1C → Mtb MenB inh: -31; Polio RdRp inh: 106; Polio RdRp inh intensity: 96; MbtI inh: /
Record of NS(=O)(=O)c1ncn(Cc2ccccc2)n1 → Mtb MenB inh: 0; Polio RdRp inh: 105; Polio RdRp inh intensity: 109; MbtI inh: /

Structures from the list above that contain bromine (two):
SMILES	Mtb MenB inh	Polio RdRp inh	Polio RdRp inh intensity	MbtI inh
CN(CC(=O)Nc1ccccc1SCC#N)Cc1ccc(-c2ccc(Br)cc2)o1	30*	45	240	72
O=C(NCc1ccc(Cl)cc1Cl)c1ccc(Br)o1	/	102	106	-7

Part of the list above in another layout:
| molecule | Mtb MenB inh | Polio RdRp inh | Polio RdRp inh intensity | MbtI inh |
| --- | --- | --- | --- | --- |
| N#CC(C#N)c1ccc(C(F)(F)F)cn1 | / | 99 | 95 | -273 |
| O=c1cc(N2CCN(c3ccccc3)CC2)[nH]c(=O)n1-c1ccc(Cl)cc1 | -11 | 105 | 107 | 6 |
| O=CN/N=C/c1ccc(Cl)cc1 | -8 | 97 | 100 | 5 |
| CCN(CC)S(=O)(=O)c1c(C)cc(C)cc1C | -31 | 106 | 96 | / |

Next part.
SMILES	Mtb MenB inh	Polio RdRp inh	Polio RdRp inh intensity	MbtI inh
Cc1cc(Cl)c2cccc(Br)c2n1	-6	101	105	-2
C#CCn1nc(-c2ccccc2)ccc1=O	6	99	101	65
COc1ccc(OCC(O)CN2C(=O)c3ccccc3S2(=O)=O)cc1 (stereo not given)	1	103	99	2
O=S(=O)(N/N=C/c1ccccc1)c1ccccc1	-23	99	102	23
Cc1nc2c([nH]1)C(c1ccc(C(C)C)cc1)C(C#N)=C(N)O2 (stereo not given)	-22	101	104	/
Cc1ccccc1-c1nnc(CN2CCc3ccccc3C2)o1	-12	99	105	-1
O=C(Cc1ccccc1)NCC1(c2ccccc2)CCCC1	-28	109	109	/
CC(C)=CCC/C(C)=C/C1OCCCO1	-48	102	104	-2
CNCc1ccsc1	-18	102	109	-6
O=C(CCCSc1nc2scc(-c3cccs3)c2c(=O)n1-c1ccccc1)N1CCOCC1	-41	90	88	43
CCc1ccc2c(CC(=O)Nc3cccc(-c4nnc5n4CCCCC5)c3)coc2c1	-12	112	109	-3
CSc1c(C#N)c(-c2cc(C(C)(C)C)oc2C)nn1-c1ccccc1	-12	103	111	-5
CC1CCC(NC(=O)c2cc(S(=O)(=O)N3CCCCC3)c[nH]2)CC1 (stereo not given)	12	102	95	14
Cc1csc(-c2coc3cc(O)cc(C)c3c2=O)n1	-22	102	101	50
Cc1ccc2nc(-c3cccnc3)oc2c1	6	104	107	93
CN(C(=O)CSc1nncn1-c1ccccc1)c1ccccc1	-18	106	109	-4
CN(C)N=C1c2cc(S(=O)(=O)N(C)C)ccc2-c2ccc(S(=O)(=O)N(C)C)cc21	-32	104	105	1
CC/C=N/NC(=O)c1cccc(F)c1	-8	101	98	-2
CC1=N/C(=C/c2cc3ccccc3nc2Sc2ccc(C)cc2)C(=O)O1	-18	101	97	-3
CC(=O)Nc1cc(C(=O)NCCCN2CCC(C)CC2)ccc1S(=O)(=O)c1ccc(Cl)cc1	-2	103	103	1
CSc1ccccc1C(=O)Nc1ccc(S(=O)(=O)N2CCCC2)cc1	-12	110	109	/
N#Cc1c(CSc2ccccc2N)cc(=O)n2c1sc1ccccc12	4	45	240	-4
COC(=O)c1cc2oc(C)cc2n1CC(=O)N1CC(C)CC(C)C1 (stereo not given)	1	107	98	6
CCCN(CCC)CCNc1cc(C)nc2c(-c3ccccc3OC)c(C)nn12	-19	104	107	-17
Nc1sc2c(c1C(=O)NCc1ccco1)CCCC2	-3	104	109	32
OCCNc1nc2ccccc2s1	9	101	101	-19
CNC(=O)C1c2ccccc2Oc2ccccc21	-11	103	101	-3
CCOC(=O)c1cnc(SCC(=O)c2ccccc2)nc1N	-11	100	101	10
O=C(c1cccnc1)N1CCc2ccccc2C1	/	103	106	-11&-2
COc1ccc2nc(SC)[nH]c2c1	0	98	103	22

Part of the list above, field by field:
Cc1ccccc1-c1nnc(CN2CCc3ccccc3C2)o1
- Mtb MenB inh: -12
- Polio RdRp inh: 99
- Polio RdRp inh intensity: 105
- MbtI inh: -1
O=C(Cc1ccccc1)NCC1(c2ccccc2)CCCC1
- Mtb MenB inh: -28
- Polio RdRp inh: 109
- Polio RdRp inh intensity: 109
- MbtI inh: /
CC(C)=CCC/C(C)=C/C1OCCCO1
- Mtb MenB inh: -48
- Polio RdRp inh: 102
- Polio RdRp inh intensity: 104
- MbtI inh: -2
CNCc1ccsc1
- Mtb MenB inh: -18
- Polio RdRp inh: 102
- Polio RdRp inh intensity: 109
- MbtI inh: -6

The list continues.
SMILES	Mtb MenB inh	Polio RdRp inh	Polio RdRp inh intensity	MbtI inh
O=C(CSCC(=O)c1ccc2c(c1)Cc1ccccc1-2)Nc1ccccc1	0	104	103	/
COc1ccc2[nH]c3c(=O)n(-c4ccc(C)c(C)c4)c(O)nc3c2c1	-37	99	105	116
Cc1cc(-c2noc(-c3snnc3C)n2)no1	7	104	109	-9
CCC(C)n1nccc1NC(=O)COc1ccccc1 (stereo not given)	-2	101	102	-1
Nc1ccc(CCc2nc3ccccc3o2)cc1	-7	101	111	/
O=C1CCc2cc(S(=O)(=O)Nc3ccccc3)cc3c2N1CCC3	-16	105	103	10
OCc1cn(-c2ccccc2)nc1-c1cccnc1	-14	108	111	/
NCc1ccccc1-n1ccnc1	26	103	102	3
COc1ccc(SCc2nc3ccccc3o2)cc1	-13	107	103	13

Screening results deposited in PubChem BioAssay by ICCB-Longwood Screening Facility, Harvard Medical School.
